Compound activity as filed in PubChem.
HSD17B inh: inhibitors of human HSD17B10 dehydrogenase; Q99714; recombinant HSD17B10, NADH fluorescence kinetic; many of its hits are not listed in these tables; Potency, µM (series often up to 57.1 µM), for the others: at the top dose activity change, negative = inhibition, hits mostly inhibitors; actives 7.6% (n = 75,000); AID 893; active = well fitted inhibition curve with a large enough effect; inconclusive = small, poorly fitted or top-dose-only effect; inactive = no such curve, though single readings can be large or run the other way;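 also: the protocol describes HADH2 (HSD17B10) and not the HSD17B4 of the title; nearly all actives have a fitted effect of over 70% in size; most hits overshoot -100% by far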
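His-tagged E. coli-expressed HADH2 at 20 nM in 100 mM Tris-HCl pH 9.0 with 0.01 % Tween-20, preincubated 15 min with compound at room temperature. Reaction with 1 mM NAD+ and 90 uM beta-hydroxybutyryl coenzyme A; NADH fluorescence (360/450 nm) read kinetically over 4 min, last minus first point.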
Starred values were filed as active, the others as inactive; ? = inconclusive; & = joins results of further samples; [ ] = another dose, or the depositor's remark. % is scaled to controls: 0 for no effect and ±100 for the full control effect; potency is read from the fitted curve at half-maximal effect. An excerpt. The share of hits here may be higher or lower than overall.

SMILES	HSD17B inh
CC(=O)[C@@H]1CC[C@H]2[C@H]3CC[C@H]4C[C@@H](O)CC[C@]4(C)[C@@H]3CC[C@]12C	-9%
COc1ccc(Nc2ncc(C(=O)N3CCC4(CC3)OCCO4)c3ccccc23)cc1	-4%
CC(=O)NC1CC2CCC(C1)N2 (centres undefined)	11%
Cc1cc(OC(=O)c2ccco2)c2c3c(c(=O)oc2c1)CCC3	284%[activator]
O=C(CN1C2CCC1CC(O)(c1cccnc1)C2)Nc1ccc2c(c1)OCO2 (centres undefined)	6%
CC(C)(C)C(=O)CP(=O)(O)O	2%[11.4 µM]
C=CC=O	-5%
Cc1ccc(CCN2CC(C(=O)N3CCC4(CC3)OCCO4)CC2=O)cc1 (centres undefined)	0%
O=C(c1ccncc1)N1CCC[C@@]2(CCN(Cc3nccs3)C2)C1	0%
O=C1NC(=O)C2(Cc3c(nc4ccccn4c3=O)N3CCCCCC32)C(=O)N1Cc1ccccc1 (centres undefined)	-11%
COC(=O)NC/C=C\c1nc(CC/C=C\C(=O)O[C@H]2C[C@H]3CC(=O)O[C@@H](/C=C\CC(C)C)C[C@@H]4CC[C@H](C)[C@H](C[C@@H](OC)C[C@H](C2)O3)O4)co1	8%[11.4 µM]
ClC(Cl)=C(c1ccc(Cl)cc1)c1ccc(Cl)cc1	7%&-1%
CNC(=O)Oc1cccc2c1OC(C)(C)O2	0%
Nc1nc(N)c(N=Nc2ccc([As](=O)(O)O)cc2)c(=O)[nH]1	1%[11.4 µM]
C=Cn1c(P(=S)(N2CCOCC2)N2CCOCC2)cc2c1CCCC2	-14%
COP(=S)(OC)Oc1ccc(SC)c(C)c1	-4%
C[As+](C)(c1ccc(Br)c([N+](=O)[O-])c1)c1ccc(Br)c([N+](=O)[O-])c1.O=[N+]([O-])O	7%[11.4 µM]
O=C(Nc1ccc(OC(=O)N2CCCC2)cc1)N1CCOCC1	-12%
O=C1CC(=O)N(c2cccc(Cl)c2)C(=O)N1	-2%
CC(=O)O/C(=C1/C[C@H]2[C@@H]3CC=C4C[C@@H](OC(C)=O)CC[C@]4(C)[C@@H]3CC[C@]2(C)C1=O)C(F)(F)F	11%[11.4 µM]
CC(=NCC1CCCO1)c1c(O)n(-c2ccccc2)c(=O)[nH]c1=O (centres undefined)	-2%
N#Cc1ccccc1Cn1cc(C(=O)C2CC2)c2ccccc21	-7%
NS(=O)(=O)c1ccc(N=Cc2c(O)n(C3CCCCC3)c(=O)n(C3CCCCC3)c2=O)cc1	-18%
CCN1CC=C(c2c[nH]c3ccccc23)CC1	-12%
COc1ccc(C2=NCC(=O)N(CC(=O)NCc3ccco3)c3sc4c(c32)CCCC4)cc1OC	-7%
Next structures
SMILES	HSD17B inh
CCOc1ccc(-n2c(O)c(C=Nc3ccc(N4CCOCC4)cc3)c(=O)[nH]c2=O)cc1	1%
COc1c2c(c(CC=C(C)C)c3oc(=O)c(-c4ccc(O)cc4)c(O)c13)OC(C)(C)C=C2	?
S=C1NCCN1	-2%
Nc1cccc(N=Cc2c(O)n(Cc3ccc(F)cc3)c(=O)[nH]c2=O)c1	-2%
CCCCSP(=O)(SCCCC)SCCCC	6%
CCOc1ccc(C2SCC(=O)Nc3c2c(=O)[nH]n3C2CCCCCC2)cc1 (centres undefined)	3%
CSC([N-]/N=C/c1cccc(C)n1)=[S]=[Cu].CS[C@H]([S-])[N-]/N=C/c1cccc(C)n1	?
NC12CN3CN(CN(C3)C1)C2 (tested in a mixture with another compound)	2%
COC(=O)CC1(Cc2ccccc2)C(=O)NC(=O)NC1=O	5%
Nc1ccc(-c2ccc(N)cc2)cc1	-10%
CCC(=NCc1ccco1)c1c(O)n(-c2ccc(OC)cc2)c(=O)[nH]c1=O	3%
COC(=O)N(c1ccc(OC)cc1)P1(=S)OCCC(C)O1 (centres undefined)	?
CC1=C2C(=O)[C@@H]3[C@@H](CC=C4C[C@@H](O)CC[C@@]43C)[C@H]2CC[C@@]12O[C@H]1C[C@H](C)CN[C@H]1[C@@H]2C	4%[11.4 µM]
NC(N)=Nc1ccc2[nH]c3c(c2c1)C[C@]1(O)[C@@H]2Cc4ccc(O)c5c4[C@]1(CCN2CC1CC1)[C@H]3O5	4µM*
CCCN[C@@H]1CCc2c(OC)cccc2[C@@H]1C	3%
C[N+]1(C)CCO[C@](O)(c2ccc(-c3ccc([C@]4(O)C[N+](C)(C)CCO4)cc3)cc2)C1	-3%[25.6 µM]
CN(C)c1cc(N)c2c(n1)CCC2 (tested in a mixture with another compound)	?
O=C(O)[C@@H](Br)[C@H](Br)C(=O)O	0%[11.4 µM]
Cn1c(=O)c2nncnc2n(C)c1=O	1%
CC(=O)N1CCN(c2ccc(N=Cc3c(O)n(-c4ccc(Cl)cc4)c(=O)[nH]c3=O)cc2)CC1	-8%
Cc1ccc(S(=O)(=O)Cc2ccc(C(=O)N3CCC4(CC3)OCCO4)o2)cc1	-10%
CCNCC	2%
CC(=Nc1ccc2c(c1)CCC2)c1c(O)n(C2CCCCC2)c(=O)[nH]c1=O	2%
O=C(Cn1cnc2ccccc2c1=O)NCC(=O)N1CCC2(CC1)OCCO2	4%
N#Cc1cccc(NC(=O)N2CCCC3(CCN(C(=O)Oc4ccccc4)CC3)C2)c1	-8%
New compounds follow.
SMILES	HSD17B inh
Cn1c(O)c(/C=N/c2ccccn2)c(=O)n(C)c1=O	0%
OC1(c2cccnc2)CC2CCC(C1)N2Cc1nnnn1Cc1ccccc1 (centres undefined)	-11%
C(CCOCC1CO1)COCC1CO1 (centres undefined)	2%
O=C(NC[P+](=O)O)OCc1ccccc1	5%
CN[C@@H](Cc1c[nH]c2ccccc12)C(=O)O	1%
c1cc(Cc2cnc[nH]2)ccn1	-12%
CC1=C2CCC3C4CCC(=O)[C@@]4(C)CCC3[C@]2(C)CCC1=O (some centres undefined)	-4%
COC(=O)C(O)(c1cn(C)c2ccccc12)C(F)(F)F (centres undefined)	12%
C[C@]1(O)CC[C@H]2[C@@H]3[C@@H](O)CC4=CC(=O)CC[C@@]4(C)[C@H]3CC[C@]21C	2%[11.4 µM]
C/C=C(\C)C(=O)O[C@@H]1C(C)=C2[C@H]([C@@H]1OC(=O)CCCCCCC)[C@@](C)(OC(C)=O)C[C@@H](OC(=O)CCC)[C@@]1(O)[C@H]2OC(=O)[C@]1(C)O	-18%
Cc1cc(C)n2nc(SC(C)C(=O)N3CCC4(CC3)OCCO4)nc2n1 (centres undefined)	4%
COc1ccccc1N=Cc1c(O)n(C)c(=O)n(C)c1=O	?
CNC1C2CN3CCC(O2)C13 (centres undefined)	0%
Cc1cc(OCC(=O)OC(C)(C)C)c2c3c(c(=O)oc2c1)CCC3	25µM*
N#Cc1c(Cl)c(Cl)c(Cl)c(C#N)c1Cl	-7%
O=C(O)[C@H]1C[C@@H]1[C@H](NP(=O)(c1ccccc1)c1ccccc1)c1ccccc1	20%
O=[N+]([O-])c1c(Cl)c(Cl)c(Cl)c(Cl)c1Cl	1%
Cc1ccc(S(=O)ON2CCC(C(=O)O)(c3ccccc3)CC2)cc1 (centres undefined)	12%[11.4 µM]
c1ccc(C[C@@H](c2ccccc2)N2CCCCC2)cc1	12%
CC[C@]1(O)CC(O[C@@H]2CC(N(C)C)C(O)C(C)O2)c2c(cc3c(c2O)C(=O)c2c(O)ccc(O)c2C3=O)C1C(=O)OC (some centres undefined)	?
CN1CC(CO)=C[C@H]2c3cccc4[nH]cc(c34)C[C@H]21	?
Cc1nnc2ccc(-c3cccc(C(F)(F)F)c3)nn12	20µM*
O=C(Oc1ccccc1)N1CCC[C@@]2(CCN(Cc3cc(C(F)(F)F)cc(C(F)(F)F)c3)C2)C1	4%
C=C1[C@@H]2CC[C@H]3[C@@]4(C)C[C@@H](O[C@@H]5O[C@H](CO)[C@H](OS(=O)(=O)O)[C@@H](OS(=O)(=O)O)[C@@H]5OC(=O)CC(C)C)C[C@@H](C(=O)O)[C@H]4CC[C@@]3(C2)[C@H]1O	5%[25.6 µM]
C[N+]1(C)[C@@H]2CC[C@H]1CC(OC(=O)c1c[nH]c3ccccc13)C2 (some centres undefined)	?
New compounds follow
SMILES	HSD17B inh
CCOP(=S)(OCC)c1ccc(N(C)C)cc1	-6%
Cc1oc2ccc(OC(=O)N(C)C)cc2c1C(=O)OC(C)C	-9%
CNCC(O)c1cccc(OC(=O)c2ccccc2C)c1 (centres undefined)	7%
O=c1cc(C2CCNCC2)[nH][nH]1	-2%
CN1CCCC2(CCN(C(=O)c3ccco3)CC2)C1	18%
CCOCC(=O)NC1CCSC1=O (centres undefined)	9%
CC(=O)c1c(C)n(CCCOC(C)C)c2ccc(O)cc12	0%
Cc1cc(OCc2nn[nH]n2)c2c3c(c(=O)oc2c1)CCC3	32µM*
COc1ccc(CC2C(=O)NC(=O)N(c3ccccc3)C2=O)c(OC)c1 (centres undefined)	2%
O=[N+]([O-])c1ccc(F)c([N+](=O)[O-])c1	-13%
CNc1ccc2oc(C[C@H]3O[C@]4(CC[C@H]3C)O[C@H]([C@H](C)C(=O)c3ccc[nH]3)[C@H](C)C[C@H]4C)nc2c1C(=O)O	32µM*
c1ccc(N2CC3(CCNCC3)C2)cc1	6%
COc1cc(OC)c2c(c1)OC(c1ccc(OC)c(OC)c1)C(O)C2 (centres undefined)	-2%
C=C1C2CCC3[C@@](CC[C@@H]4C(C(=O)O)CC(OC5OC(CO)C(OS(=O)(=O)O)C(OS(=O)(=O)O)C5OC(=O)CC(C)C)C[C@]34C)(C2)C1O (some centres undefined)	2%
CCOC(=O)CC1=C(C(=O)OCC)C2(C(=O)Nc3ccccc32)C(C#N)=C(N)O1 (centres undefined)	-2%
COC(=O)[C@@H]1[C@@H](O)[C@@]2(O)c3c(OC)cc(OC)cc3O[C@@]2(c2ccc(OC)cc2)[C@H]1c1ccccc1	8%[11.4 µM]
OC(CNC1CCCCC1)c1ccccc1 (centres undefined)	3%
CCSP1(=S)N=C(N2CCOCC2)C(C#N)=C2CCCN21 (centres undefined)	10%
CC(C)CC(N)C1(c2ccc(Cl)cc2)CCC1 (centres undefined)	-4%
C=CCC1(C(C)CCC)C(=O)N=C(S)NC1=O (centres undefined)	-2%
C=C(C)[C@H]1[C@H]2OC(=O)[C@@H]1[C@]1(O)C[C@H]3O[C@]34C(=O)O[C@H]2[C@@]14C	4%[25.6 µM]
CC(C)[C@@]1(NC(=O)[C@@H]2C[C@H]3c4cccc5[nH]cc(c45)C[C@@H]3N(C)C2)O[C@]2(O)[C@H]3CCCN3C(=O)CN2C1=O	10%[25.6 µM]
Cc1[nH]c2ccccc2c1CN(C)C	1%
CC(=O)Nc1cc(C(=O)N2CCC3(CC2)OCCO3)ccc1S(=O)(=O)c1ccc(C)cc1	9%
N[C@@H](CP(=O)(O)O)C(=O)O	5%[11.4 µM]
The list continues.
SMILES	HSD17B inh
CC1(C)COC(Nc2ccc(Cl)cc2)=N1	-6%
CC(C)(C)c1cc(C#N)cc(Br)c1OP(=O)(Oc1c(Br)cc(C#N)cc1C(C)(C)C)c1ccccc1	5%[11.4 µM]
O=C(O)c1cc2ccccc2oc1=O	1%
COC(=O)[C@@H]1C[C@@]1(C)[C@@H](NP(=O)(c1ccccc1)c1ccccc1)c1ccccc1	6%
CC(=O)Nc1cc([As](=O)(O)O)ccc1O	-4%
C[N+](C)(C)CCOC(=O)CBr	3%
Nc1ccnn1C1CCNCC1	-10%
COc1cc(OC)c(OC)cc1C=O	3%
CCN1C[C@]2(COC)C(O)C[C@H](OC)[C@@]34C5C[C@]6(O)C(OC)C(O)[C@](OC(C)=O)(C5C6OC(=O)c5ccccc5)C(C(OC)C23)C14 (some centres undefined)	-1%
C[C@@H](Cc1ccc(OCC(=O)O)cc1)NC[C@H](O)c1cccc(Cl)c1	4%&3%
FC(F)(F)c1nc(N2CCN(c3ccccc3)CC2)nc2c1CCCCC2	?
N[C@H](Cc1c[nH]c2ccccc12)P(=O)(O)O	4%[11.4 µM]
CN1C2CC3CC1C(O3)C2O (centres undefined)	-3%
CCC1(c2ccccc2)C(=O)N(COC)C(=O)N(COC)C1=O	9%
CCC(COC(=O)c1cc(OC)c(OC)c(OC)c1)(c1ccccc1)N(C)C (centres undefined)	1%
C=CCSSCC=C	-26%
Cc1cc(CN(C)C)c(OC(=O)N(C)C)cc1C	4%
Cc1nnc2ccc(N3CCN(C)CC3)nn12	7%
O=C(Cc1cccs1)N1CCC2(CC1)OCCO2	4%
